Bioassay records as filed in PubChem.
Vaccinia stage: blocks a specific stage of Vaccinia orthopoxvirus infection, primary screen, cell-based, single point; Vaccinia-infected cells, mCherry/Venus stage reporter fluorescence; active compounds read low; some inactives read as strong as hits; activity change (mCherry), % (test concentration not listed); actives 0.01% (n = 89,000);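 active = mCherry past -33% and 40 or more points under the early reporter, replicates agreeing; inconclusive = past -33% without that gap or agreement; tested in A549 cells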;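 note: scaled between vehicle wells and reference inhibitor wells; 23 nL library stock went into each well; one replicate is shown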
Vaccinia stage Venus: further read-out of Vaccinia stage, marked with its call; activity change (Venus), %; measured here: Venus reporter, other viral stage;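 negative = less Venus signal; first of two replicates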
* hit, by the source's call; ? = inconclusive; nt = no result given; & = joins results of further samples. Not all compounds are listed; the hit share may differ from the screen's.

SMILES | Vaccinia stage | Vaccinia stage Venus
C[C@H](CO)N1C[C@H](C)[C@@H](CN(C)S(=O)(=O)c2ccc(F)cc2)Oc2c(NC(=O)C3CCCCC3)cccc2C1=O | -8&-13 | -2&3
CC(C)NC(=O)[C@@]1(C)c2ccccc2C(=O)N(Cc2ccc(OC(F)(F)F)cc2)[C@H]1c1ccc(CO)cc1 | 15 | 13
CN1CCN(C(=O)C[C@@H]2CC[C@@H]3[C@@H](COc4ccc(NC(=O)C5CCCC5)cc4C(=O)N3C)O2)CC1 | 11 | -10
O=C(Cc1ccccn1)N1CC(=O)N2[C@@H](CO)[C@@H](c3ccc(C#CC4CC4)cc3)[C@@H]2C1 | 8 | 5
C[C@H]1CN([C@@H](C)CO)C(=O)Cc2cc(NS(C)(=O)=O)ccc2O[C@@H]1CN(C)Cc1ccc(C(F)(F)F)cc1 | 2 | -6
O=C(C1=C[C@H](C2CCCCC2)C[C@H](OCCCCO)O1)N1CCN(Cc2ccccc2)CC1 | 7 | 7
COc1ccc2c3c(n(C)c2c1)[C@@H](CO)N(S(=O)(=O)c1ccc(C)cc1)CC31CCN(C)CC1 | ? | nt
C[C@@H]1CN([C@H](C)CO)C(=O)c2cc(NC(=O)Cc3cn(C)c4ccccc34)ccc2O[C@@H]1CN(C)Cc1ccc(Oc2ccccc2)cc1 | -27 | -26
N#C[C@@H]1[C@H](c2ccc(C#CC3CCCC3)cc2)[C@@H](CO)N1C(=O)Cc1ccccn1 | -10 | -7
COc1ccccc1-c1cnc2c(c1)C(=O)N([C@@H](C)CO)C[C@H](C)[C@H](CN(C)C(C)=O)O2 | 39 | 13

Retrieved by structure from the list above (7):
SMILES | Vaccinia stage | Vaccinia stage Venus
CN1CCN(C(=O)C[C@@H]2CC[C@@H]3[C@@H](COc4ccc(NC(=O)C5CCCC5)cc4C(=O)N3C)O2)CC1 | 11 | -10
CC(C)NC(=O)[C@@]1(C)c2ccccc2C(=O)N(Cc2ccc(OC(F)(F)F)cc2)[C@H]1c1ccc(CO)cc1 | 15 | 13
COc1ccc2c3c(n(C)c2c1)[C@@H](CO)N(S(=O)(=O)c1ccc(C)cc1)CC31CCN(C)CC1 | ? | nt
C[C@H]1CN([C@@H](C)CO)C(=O)Cc2cc(NS(C)(=O)=O)ccc2O[C@@H]1CN(C)Cc1ccc(C(F)(F)F)cc1 | 2 | -6
COc1ccccc1-c1cnc2c(c1)C(=O)N([C@@H](C)CO)C[C@H](C)[C@H](CN(C)C(C)=O)O2 | 39 | 13
C[C@H](CO)N1C[C@H](C)[C@@H](CN(C)S(=O)(=O)c2ccc(F)cc2)Oc2c(NC(=O)C3CCCCC3)cccc2C1=O | -8&-13 | -2&3
O=C(Cc1ccccn1)N1CC(=O)N2[C@@H](CO)[C@@H](c3ccc(C#CC4CC4)cc3)[C@@H]2C1 | 8 | 5

New compounds follow
SMILES | Vaccinia stage | Vaccinia stage Venus
COc1ccc2c3c([nH]c2c1)[C@H](CO)N(C(=O)NC(C)C)CC31CN(C(=O)c2cnccn2)C1 | 26 | 12
CC(C)NC(=O)Nc1ccc2c(c1)CC(=O)N([C@@H](C)CO)C[C@H](C)[C@H](CN(C)CC1CCCCC1)O2 | -3 | -3
Cc1ccc(-c2cnc3c(c2)C(=O)N([C@H](C)CO)C[C@H](C)[C@H](CN(C)Cc2ccccc2F)O3)cc1 | -32 | -24
O=C(CC1CC1)N1CC(=O)N2[C@@H](CO)[C@@H](c3ccc(C#Cc4ccc(F)cc4)cc3)[C@@H]2C1 | ? | nt
CN1C(=O)c2cc(NC(=O)c3ccc(F)cc3)ccc2OC[C@H]2O[C@@H](CC(=O)N3CCOCC3)CC[C@@H]21 | 14 | 11
CCNC(=O)[C@H]1[C@H](CO)[C@H]2Cn3c(ccc(C4=CCCCC4)c3=O)[C@@H]1N2CCC(F)(F)F | 4 | 10
C[C@H](CO)N1C[C@H](C)[C@H](CN(C)C(=O)C2CCCCC2)Oc2cc(-c3cccnc3)ccc2S1(=O)=O | -9 | 0
O=C(C[C@@H]1CC[C@H]2[C@@H](COC[C@H](O)CN2Cc2cc(F)cc(F)c2)O1)NC1CCC1 | 8 | 6
O=C(C1=C[C@H](C2CC2)C[C@H](OCc2ccc(CO)cc2)O1)N1CCN(Cc2ccc3c(c2)OCO3)CC1 | -9 | -5
O=C(C[C@H]1C[C@@H]2c3cc(NC(=O)NC4CCCCC4)ccc3O[C@@H]2[C@H](CO)O1)NCc1ccccc1 | 3 | -7
COc1ccc(NC(=O)Nc2ccc3c(c2)C(=O)N([C@H](C)CO)C[C@@H](C)[C@H](CN(C)C(=O)CCCN(C)C)OCCCC[C@@H](C)O3)cc1 | 30 | 8
COc1ccc(NC(=O)Nc2cccc3c2O[C@H](CN(C)Cc2ccc(C(=O)Nc4ccccc4N)cc2)[C@@H](C)CN([C@@H](C)CO)C3=O)cc1 | 2 | -1
C[C@@H]1CN([C@@H](C)CO)C(=O)c2cccc(NC(=O)C3CC3)c2O[C@@H]1CN(C)Cc1ccc(C(F)(F)F)cc1 | -2 | 5
C[C@H](CO)N1C[C@H](C)[C@@H](CN(C)S(=O)(=O)c2cccs2)Oc2c(NC(=O)Nc3ccc(C(F)(F)F)cc3)cccc2C1=O | ? | nt
CO[C@@H]1CN(C)C(=O)c2cc(NC(=O)Nc3c(C)noc3C)ccc2OC[C@@H](C)NC[C@H]1C | 37 | 18
CCCNC(=O)[C@@H]1[C@@H](CO)[C@@H]2Cn3c(cccc3=O)[C@H]1N2C(=O)NCCC | 0 | -5
O=C(C[C@@H]1C[C@@H]2c3cc(NC(=O)Cc4ccncc4)ccc3O[C@@H]2[C@H](CO)O1)NCC1CC1 | 16 | 5
CCC(=O)N1CCC2(CC1)CN(Cc1ccccn1)[C@H](CO)c1[nH]c3cc(OC)ccc3c12 | 23 | 33
C[C@@H]1CN([C@H](C)CO)C(=O)CCCn2nncc2CO[C@@H]1CN(C)C(=O)c1ccncc1 | 3 | 8
O=C(C[C@@H]1CC[C@@H]2[C@H](COC[C@@H](O)CN2S(=O)(=O)c2ccc(F)cc2)O1)NCC1CCCCC1 | -7 | 0
C[C@@H]1CN([C@H](C)CO)S(=O)(=O)c2ccc(/C=C/c3ccccc3)cc2O[C@@H]1CN(C)C | ? | nt
C[C@H](CO)N1C[C@H](C)[C@H](CN(C)CC2CCCCC2)Oc2c(NC(=O)Nc3ccc(F)cc3)cccc2C1=O | ? | nt
C[C@@H]1CN([C@H](C)CO)C(=O)Cc2cc(NC(=O)Nc3ccc(F)cc3)ccc2O[C@@H]1CN(C)C(=O)Nc1cccc2ccccc12 | 61 | 48
O=C(O)C[C@H]1CC[C@H](NC(=O)Nc2cc(F)ccc2F)[C@@H](CO)O1 | 10 | 9
CC(C)C#Cc1ccc([C@H]2[C@H](CO)N3C(=O)CN(C(=O)c4ccccn4)C[C@@H]23)cc1 | 6 | 0
COc1ccc(CN(C)C[C@@H]2Oc3ccc(NC(=O)Nc4ccc(OC)cc4)cc3CC(=O)N([C@@H](C)CO)C[C@H]2C)cc1 | ? | nt
COc1cccc(C#Cc2cnc3c(c2)C(=O)N([C@H](C)CO)C[C@@H](C)[C@H](CN(C)C(=O)C2CCCCC2)O3)c1 | ? | nt
C/C=C/c1ccc([C@@H]2[C@@H](CO)N(C(=O)C3CCCCC3)C23CN(C(=O)NC(C)C)C3)cc1 | -11 | -2
O=C(Cc1ccncc1)NCC[C@@H]1CC[C@@H](NC(=O)C2CCCCC2)[C@@H](CO)O1 | 4 | 5
CC(C)c1cccc(NC(=O)C[C@H]2CC[C@H]3[C@@H](COc4ccc(NS(=O)(=O)c5ccccc5Cl)cc4C(=O)N3C)O2)c1 | -23 | -13
Cc1ccc(S(=O)(=O)N(C)C[C@H]2Oc3cc(Br)ccc3S(=O)(=O)N([C@@H](C)CO)C[C@H]2C)cc1 | ? | nt
Cc1noc(C)c1S(=O)(=O)Nc1ccc2c(c1)C(=O)N([C@@H](C)CO)C[C@@H](C)[C@@H](CN(C)C(=O)NC1CCCCC1)OCCCC[C@H](C)O2 | -12 | -9
CN(C)C(=O)c1ccc(-c2ccc(C3[C@@H]4CN(C(=O)C5CC5)C[C@H]3N4)cc2)cc1 (stereo partly drawn) | ? | 8
C[C@H](CO)N1C[C@H](C)[C@H](CN(C)S(=O)(=O)c2cccc(F)c2)Oc2ncc(C#Cc3ccc(C(F)(F)F)cc3)cc2C1=O | -30 | -22
O=C(C[C@@H]1CC[C@@H]2[C@H](COC[C@H](O)CN2Cc2cccc(Cl)c2)O1)NCC1CCCCC1 | -16 | -10
Cc1ccc(S(=O)(=O)Nc2ccc3c(c2)C(=O)N([C@@H](C)CO)C[C@H](C)[C@@H](CN(C)Cc2ccc(Cl)c(Cl)c2)OCCCC[C@H](C)O3)cc1 | ? | nt
CC(C)NC(=O)N(C)C[C@@H]1Oc2ccc(NC(=O)Nc3cccc4ccccc34)cc2C(=O)N([C@@H](C)CO)C[C@@H]1C | 13 | 14
CO[C@@H](CN(C)Cc1cc(F)ccc1F)[C@H](C)CN(C(=O)Nc1ccc(C(F)(F)F)cc1)[C@@H](C)CO | -11 | -4
COc1ccc2c3c(n(C)c2c1)[C@H](CO)N(Cc1cccnc1)CC31CN(C(=O)NC(C)C)C1 | 3 | -8
CS(=O)(=O)Nc1ccc2c(c1)[C@@H]1C[C@H](CC(=O)NCc3cccc(F)c3)O[C@@H](CO)[C@@H]1O2 | 8 | 10

Entries listed so far that contain two or more sulfur atoms, in the order listed:
SMILES | Vaccinia stage | Vaccinia stage Venus
C[C@H](CO)N1C[C@H](C)[C@@H](CN(C)S(=O)(=O)c2cccs2)Oc2c(NC(=O)Nc3ccc(C(F)(F)F)cc3)cccc2C1=O | ? | nt
Cc1ccc(S(=O)(=O)N(C)C[C@H]2Oc3cc(Br)ccc3S(=O)(=O)N([C@@H](C)CO)C[C@H]2C)cc1 | ? | nt

Going on with the list.
SMILES | Vaccinia stage | Vaccinia stage Venus
CO[C@@H]1CN(C)C(=O)c2cc(NS(=O)(=O)Cc3ccccc3)ccc2OC[C@H](C)NC[C@@H]1C | 8 | 16
C[C@@H]1CN([C@H](C)CO)C(=O)c2cccc(NS(C)(=O)=O)c2O[C@@H]1CN(C)C(=O)Nc1ccccc1 | 11 | 8
CN(C)CCCNC(=O)C[C@@H]1CC[C@@H]2[C@H](COc3ccc(NS(C)(=O)=O)cc3C(=O)N2C)O1 | 11 | 7
C[C@@H]1CN([C@@H](C)CO)C(=O)c2cc(-c3ccncc3)cnc2O[C@@H]1CN(C)C(=O)c1ccncc1 | 24 | 7
C[C@@H]1CN([C@H](C)CO)S(=O)(=O)c2ccc(C#CC3CC3)cc2O[C@@H]1CN(C)CC1CC1 | -13 | -19
COc1ccc2c3c(n(C)c2c1)[C@H](CO)N(S(C)(=O)=O)CC31CCN(Cc2nccs2)CC1 | -19 | -20
CCCN(C)C[C@H]1Oc2cc(C#CCC3CCCC3)ccc2S(=O)(=O)N([C@H](C)CO)C[C@@H]1C | ? | nt
C[C@@H]1CN([C@H](C)CO)C(=O)c2cc(C#Cc3ccccn3)cnc2O[C@H]1CN(C)Cc1cncnc1 | 18 | 16
CO[C@H]1CC[C@@H]2CCN(C)C(=O)CCCN(C)C(=O)c3cccc(C#N)c3OC[C@@H]1O2 | 11 | 11
CNC[C@H]1Oc2cc(-c3ccccc3OC)ccc2S(=O)(=O)N([C@@H](C)CO)C[C@@H]1C | -6 | 11
N#C[C@@H]1[C@@H](c2ccccc2)[C@H](CO)N1C(=O)Nc1cccc(F)c1 | 5 | -9
C[C@@H]1CN([C@@H](C)CO)C(=O)c2cccc(NC(=O)c3cnccn3)c2O[C@H]1CN(C)C(=O)Nc1ccc(F)cc1 | 15 | 6
C[C@@H]1CN([C@H](C)CO)C(=O)CCCn2cc(nn2)CO[C@H]1CN(C)S(=O)(=O)c1cccc(F)c1 | 7 | 8
COc1ccc(CN(C)C[C@H]2Oc3ccc(NC(=O)CCN4CCOCC4)cc3CC(=O)N([C@H](C)CO)C[C@@H]2C)cc1 | -2 | -8
C[C@H](CO)N1C[C@H](C)[C@H](CN(C)CC2CC2)Oc2cc(-c3cccc(F)c3)ccc2S1(=O)=O | -9 | -4
COc1cccc(-c2ccc([C@@H]3[C@@H](CO)N4CCCCN(S(=O)(=O)c5cccs5)C[C@H]34)cc2)c1 | -18 | -11
C[C@@H]1CN([C@@H](C)CO)C(=O)Cc2cc(NC(=O)Cc3cn(C)c4ccccc34)ccc2O[C@H]1CN(C)C(=O)NC1CCCCC1 | -6 | -6
C[C@H]1CN([C@@H](C)CO)C(=O)c2cccc(NC(=O)C3CCOCC3)c2O[C@@H]1CN(C)S(=O)(=O)c1cccs1 | 23 | 11
Cc1ccc(S(=O)(=O)N[C@@H]2CC[C@@H](CCn3cc(C4CC4)nn3)O[C@@H]2CO)cc1 | 6 | 7
C[C@H](CO)N1C[C@H](C)[C@H](CN(C)CC2CCCCC2)Oc2ccc(NC(=O)Cc3cn(C)c4ccccc34)cc2C1=O | ? | nt
CC(C)NC(=O)Nc1ccc2c(c1)C(=O)N([C@H](C)CO)C[C@H](C)[C@H](CN(C)CC1CC1)OCCCC[C@@H](C)O2 | 0 | 3
C[C@@H]1CN([C@H](C)CO)C(=O)c2cc(N(C)C)ccc2O[C@@H]1CN(C)Cc1ccc(Cl)c(Cl)c1 | -5 | -8
COc1ccc(NC(=O)Nc2ccc3c(c2)C(=O)N([C@@H](C)CO)C[C@@H](C)[C@H](CN(C)Cc2ccc(-c4ccccc4)cc2)O3)cc1 | ? | nt
CCCC(=O)N1CC2(CN(C)C2)c2c(n(C)c3cc(OC)ccc23)[C@@H]1CO | -4 | -1
CNC[C@@H]1OCCCC[C@@H](C)Oc2ccc(NC(=O)Nc3ccc(F)cc3)cc2C(=O)N([C@@H](C)CO)C[C@@H]1C | 15 | 12
C[C@H](CO)N1C[C@H](C)[C@@H](CN(C)Cc2ccccc2)Oc2c(NC(=O)c3cnccn3)cccc2C1=O | 4 | 0
COc1ccc(S(=O)(=O)N(C)C[C@H]2OCCCC[C@@H](C)Oc3ccc(NC(=O)NC4CCCCC4)cc3C(=O)N([C@@H](C)CO)C[C@H]2C)cc1 | -16 | -6
COC(=O)C[C@@H]1C=C[C@@H](NS(=O)(=O)c2ccccc2F)[C@@H](CO)O1 | 8 | 5
